High-throughput results: PubChem BioAssay, several laboratories
rRNA inh HTS: inhibitors of bacterial rRNA selective over humanized ribosomes; E. coli WT GFP vs humanized-ribosome RFP mutants, fluorescence, 24 h; stronger effect = lower value; DMSO median 0, no signal -100; 350,000 compounds, 1.6% hits; GFP signal change (wild-type ribosome), % (concentration not given with the values);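 active = significant combined selectivity score with lowered wild-type GFP, culture density cut under 30%, mutant RFP and density less affected; inactive = any of these conditions unmet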; also: one replicate is shown; some compounds called inactive have numbers as strong as hits
HNF4A DNA FP: change in binding of human HNF4 alpha to DNA | 360,000 compounds, 0.3% hits | HNF4a-FITC DNA binding, fluorescence polarization, 1 h | activity change, % at 10 µM | AID 1224865 | P41235; in the data active = activity change above about 30%, passing the limit was not always enough;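 also: controls were the assay level and a saturating level of protein; the project sought stronger binding though the title names inhibitors; some compounds called inactive have numbers as strong as hits; positive values seem to mean higher polarization but the record does not say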
Target sequence (P41235 whole entry, looked up): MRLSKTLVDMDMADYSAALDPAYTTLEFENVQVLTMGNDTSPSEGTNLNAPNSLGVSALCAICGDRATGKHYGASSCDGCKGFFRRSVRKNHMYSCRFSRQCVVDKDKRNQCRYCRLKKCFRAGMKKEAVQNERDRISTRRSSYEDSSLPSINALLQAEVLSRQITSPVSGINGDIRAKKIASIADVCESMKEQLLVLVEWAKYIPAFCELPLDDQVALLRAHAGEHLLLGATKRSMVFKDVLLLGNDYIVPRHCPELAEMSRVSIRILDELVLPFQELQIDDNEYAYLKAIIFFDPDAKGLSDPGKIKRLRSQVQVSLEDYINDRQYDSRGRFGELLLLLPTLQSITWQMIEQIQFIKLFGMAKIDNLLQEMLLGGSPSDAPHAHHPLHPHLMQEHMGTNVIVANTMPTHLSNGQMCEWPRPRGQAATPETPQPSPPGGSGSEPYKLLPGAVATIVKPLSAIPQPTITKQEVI
Ecoli growth: E. coli growth inhibition; 330,000 compounds, 0.21% hits; Escherichia coli growth, OD600, 23 h; stronger effect = lower value; OD600 absorbance (concentration not given with the values);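 active = OD600 absorbance below the run mean of sample wells minus 3.6 SD, in any replicate, cut at about 0.56 in these data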;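 also: stock transfer was 300 nL into about 60 µL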
Vif A3G: HIV-1 Vif–A3G interaction blockers – biochemical, TR-FRET, GST-Vif 1-94, biotin-A3G peptide, dose response retest, primary screen (AID 1117319); 260,000 compounds, 0.57% hits; inhibition, %, or IC50 in µM where a hit was titrated; TR-FRET GST-Vif / biotin-A3G peptide binding; higher % means a stronger effect; test concentration not given here; strong numbers were not always called active;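 active = above the screen mean plus three standard deviations and confirmed in dose response; inconclusive = results disagree or hit not tested in dose response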;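 also: Vif residues 1-94 fused to GST binding biotinylated APOBEC3G peptide 110-148; 0% = full assay without inhibitor and 100% = GST in place of GST-Vif; retest series ran down from 100 µM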
FGF22 binding: binders of recombinant human FGF22 by thermal shift | Q9HCT0 | SYPRO orange fluorescence; percent of sucrose octasulfate shift, DMSO zero | calls only at 9.99 µM | 340,000 compounds, 1.5% hits | AID 651658;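 active = melting point raised past a set limit in the mean and every replicate; inconclusive = no clear call; three in four hits are not shown here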
Target sequence (Q9HCT0 whole entry, looked up): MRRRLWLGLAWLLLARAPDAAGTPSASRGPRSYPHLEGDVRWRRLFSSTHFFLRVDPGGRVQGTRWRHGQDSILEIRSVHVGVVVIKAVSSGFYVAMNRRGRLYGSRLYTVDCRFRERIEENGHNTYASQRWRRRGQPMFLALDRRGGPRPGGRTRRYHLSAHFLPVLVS
ALR H2O2 inh: blocks human ALR sulfhydryl oxidase activity; purified ALR, DTT oxidation, H2O2 HRP-luminol luminescence; inhibition, % (no concentration beside the values); 290,000 compounds, 3.8% hits;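 active = mean and each replicate at 75% or more; inconclusive = only one of the two met; inactive = neither met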;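 also: stock transfer was 7.5 nL into about 7.5 µL; 0% = neutral wells and 100% = wells with inactivated enzyme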
Target sequence (P55789 whole entry, looked up): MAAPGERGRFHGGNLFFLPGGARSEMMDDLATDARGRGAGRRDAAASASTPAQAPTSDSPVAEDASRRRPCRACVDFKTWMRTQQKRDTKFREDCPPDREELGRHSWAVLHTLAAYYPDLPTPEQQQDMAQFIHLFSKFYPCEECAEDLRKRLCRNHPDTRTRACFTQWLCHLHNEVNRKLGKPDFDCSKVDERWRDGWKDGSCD
MLL AF4-AF9 inh: MLL-AF4/AF9 protein interaction inhibition. P42568. AlphaScreen, biotin-AF4 peptide binding to FLAG-AF9. inhibition, % at 10 µM. 350,000 compounds, 0.47% hits. AID 651704;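 active = every replicate reaching a set inhibition limit, whatever the replicate mean, cut at about 25% in these data; inconclusive = mean inhibition reaches that limit but some replicates miss it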;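 also: 0% = plate neutral control median and 100% = total signal loss; the record names both 10 and 1 µM as test concentration; the first replicate is given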
rRNA inh HTS OD600: further read-out of rRNA inh HTS, marked with its call; OD600 change, %; measured here: OD600 growth;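 optical density of the mix in the first replicate; 0 = DMSO median and -100 = no signal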
rRNA inh HTS RFP: further read-out of rRNA inh HTS, marked with its call; RFP signal change, %; measured here: RFP humanized mutant strains;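 first replicate; 0 = DMSO median and -100 = no signal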
The depositor's hits bear a star; i = inactive; ? = inconclusive; · = no result given; & = joins results of further samples.

SMILES	rRNA inh HTS	rRNA inh HTS OD600	rRNA inh HTS RFP	HNF4A DNA FP	Ecoli growth	Vif A3G	FGF22 binding	ALR H2O2 inh	MLL AF4-AF9 inh
Nc1cc(=O)[nH]c(SCCSc2ccccc2)n1	-7	5	-4.0	0.1	0.71	·	i	1	0.1
Cc1nc(C)n(CC(=O)N2CCCC(C(=O)c3cccc4ccccc34)C2)n1 (centres undefined)	-7	-1	1.0	-0.7	0.67	-6%	i	-13	-2.1
COc1ccc(CCN2C(=O)COc3ccccc3C2C(=O)NC(C)(C)C)cc1OC (centres undefined)	·	·	·	0.1	·	·	i	·	-0.2
O=c1c2[nH]c3ccc(Br)cc3c2ncn1CCCn1ccnc1	·	·	·	-1.5	0.69	-30%	·	-24	·
Cc1nnc2sc(SCc3cccc(Cl)c3)nn2c1=O	-5	-7	-2.6	2.8	0.71	-5%	i	100*	-0.9
COC(=O)c1cc2c(c3c4cc(OC)ccc4n(S(=O)(=O)c4ccc(F)cc4)c13)C(=O)N(CC(C)C)C2	4	1	11	·	·	·	i	·	4.1
COc1ccc(C(=O)NCc2cccnc2)cc1S(=O)(=O)N1CCOCC1	·	·	·	0.3	0.73	-6%	·	2	·
CCN(CC)S(=O)(=O)c1ccc(C(=O)Oc2cc(C)[nH]c(=O)c2[N+](=O)[O-])cc1	12	3	-0.2	-6.9	0.68	25%	i	-5	-1.9
CCCC(=O)N1CC2(CN(S(=O)(=O)CC)C2)c2c(n(C)c3cc(OC)ccc23)[C@@H]1CO	-3	-4	-0.3	·	·	·	i	·	0.4
COc1cccc(C(=O)Nc2ccc(N3CCN(S(C)(=O)=O)CC3)cc2)c1	·	·	·	-1.8	0.71	3%	·	-2	·
CC(=O)/C=C(\C)Nc1ccccc1O	7	7	4.0	-0.4	0.66	20%	i	51	1.4
Cc1ccc(NC(=O)c2c(C)noc2-c2snnc2C)cc1	-22*	-15*	-4.5*	1.7	0.73	-1%	i	-8	1.0
Cc1cc(C(=O)Nc2cccc3c2O[C@@H](CN(C)Cc2ccc(C(F)(F)F)cc2)[C@@H](C)CN([C@H](C)CO)C3=O)n(C)n1	-5	-5	-0.6	·	·	·	i	·	0.9
Cc1ccc(C(=O)N/N=C(\CC(C)C)c2ccccc2)cc1	9	11	-1.7	2.2	·	·	i	-2	2.7
COCCN1C(=O)N[C@@H](c2ccccc2)[C@H](C(=O)OC)[C@H]1C	2	3	4.8	2.7	·	·	i	-3	2.0
CCN(CCn1cccn1)C(=O)c1ccc(OC2CCN(C(=O)COC)CC2)cc1	9	10	2.4	-6.6	0.65	·	i	-13	0.1
Cc1ccc(C(=O)NNC(=O)CSc2n[nH]c(-c3cccnc3)n2)cc1	3	18	-1.3	-2.8	0.68	-7%	i	-7	-14
O=C(NCC1CCCN1S(=O)(=O)c1ccccc1)c1cccc(Cl)c1 (centres undefined)	-5	-9	2.7	1.6	0.66	-3%	i	-4	?
O=C(OCc1nnc(-c2ccc([N+](=O)[O-])cc2)o1)C1CCN(C(=O)c2ccc(Cl)cc2)CC1	-4	6	1.7	2.0	0.68	2%	i	·	-0.5
Cc1cc(C(=O)N/N=C/c2ccccn2)n[nH]1	18	18	-1.5	-3.7	·	3%	i	·	-1.1

Some entries already given, limited to Vif A3G, rRNA inh HTS and FGF22 binding.
structure	Vif A3G	rRNA inh HTS	FGF22 binding
CCN(CCn1cccn1)C(=O)c1ccc(OC2CCN(C(=O)COC)CC2)cc1	·	9	i
Cc1ccc(C(=O)NNC(=O)CSc2n[nH]c(-c3cccnc3)n2)cc1	-7%	3	i
Cc1cc(C(=O)Nc2cccc3c2O[C@@H](CN(C)Cc2ccc(C(F)(F)F)cc2)[C@@H](C)CN([C@H](C)CO)C3=O)n(C)n1	·	-5	i

Further structures follow.
SMILES	rRNA inh HTS	rRNA inh HTS OD600	rRNA inh HTS RFP	HNF4A DNA FP	Ecoli growth	Vif A3G	FGF22 binding	ALR H2O2 inh	MLL AF4-AF9 inh
c1ccc(CC2CNc3ccccc3CN2)cc1 (centres undefined)	·	·	·	0.7	0.73	11%	·	24	·
CCOC(=O)c1c(-c2ccc(C)cc2)csc1NC(=O)CCN1CC(C)OC(C)C1 (centres undefined)	-27	-40	3.2	-0.5	0.71	·	i	97*	5.9
CO[C@H]1CN(C)C(=O)c2cc(NS(=O)(=O)c3ccccc3)ccc2OC[C@H](C)N(Cc2ccccn2)C[C@@H]1C	-3	-4	0.9	·	·	·	i	·	-1.5
S=C(Nc1ccccc1)Nc1ccc(Br)cn1	1	1	-2.4	-0.5	0.68	5%	i	-3	-1.6
O=C(N/N=C/c1c(Cl)[nH]c2ccccc12)c1ccc2c(c1)OCCO2	5	6	-1.2	3.8	·	2%	i	19	9.7
CCOC(=O)Cc1nn(C(C)C)c(=O)c2ccccc12	-5	-9	-7.1	-0.9	0.72	·	i	-11	-0.4
COc1ccc(NC(=O)Nc2ccc3c(c2)C(=O)N([C@H](C)CO)C[C@H](C)[C@H](CN(C)C(=O)C2CCCCC2)OCCCC[C@@H](C)O3)cc1	3	4	2.1	·	·	·	i	·	4.6
CN(C)CCNc1nc(-c2ccccc2F)c2sccc2n1	3	-2	-3.5	2.7	·	·	i	·	-1.5
COc1ccc(CC(=O)Nc2cccc(C(=O)Nc3ccccc3C(=O)O)c2)cc1OC	·	·	·	1.3	0.65	8%	·	4	-0.9
C[C@@H]1CCCCO[C@@H](CN(C)S(=O)(=O)c2cccs2)[C@H](C)CN([C@@H](C)CO)C(=O)c2cc(NC(=O)c3ccncc3)ccc2O1	-8	-12	1.9	·	·	·	i	·	2.2
CN(C)S(=O)(=O)c1cccc(NC(=O)c2ccc(COc3ccccc3)cc2)c1	-2	-12	-6.8	2.5	0.67	-1%	i	-22	-1.5
CN1C(=O)c2cc(NC(=O)c3cccc(C(F)(F)F)c3)ccc2OC[C@@H]2O[C@H](CC(=O)NCCN3CCCC3)CC[C@H]21	3	9	0.2	·	·	·	i	·	1.8
Cc1cccc(NC(=O)c2nc[nH]c2C(=O)NCC(=O)OCc2ccccc2)c1	3	3	2.5	1.2	0.6	3%	i	-4	-8.5
COc1ccc(-n2nc(C(=O)NCC(=O)NCCCN3CCN(C)CC3)c3ccccc3c2=O)cc1OC	5	18	-2.5	-2.5	0.67	·	i	-6	-0.6
C=CC[C@H](CC(=O)NCCO)C(=O)N[C@@H](COC(=O)[C@@H](CC=C)CC(=O)OC(C)(C)C)Cc1c[nH]c2ccccc12	-3	-4	-0.3	-1.4	·	·	i	6	3.4
O=C(CC(CC(=O)c1ccc(Br)cc1)c1cccnc1)c1ccc(Br)cc1	16	1	3.3	-2.2	0.68	-18%	i	-4	2.6
CS(=O)(=O)N1CCN(c2ncnc3c2cnn3-c2ccccc2)CC1	12	8	2.3	0.5	0.66	-11%	i	-1	-1.2
CN(Cc1ccccc1)S(=O)(=O)c1ccc2[nH]cc(C(=O)NCC3CCCO3)c(=O)c2c1 (centres undefined)	·	·	·	-7.5	0.73	1%	·	·	·
COc1ccc(Cl)cc1S(=O)(=O)n1ccnc1C(C)C	·	·	·	-1.6	0.73	0%	·	16	·
COc1ccc(OC)c(-c2cc(C(=O)Nc3c(C)nn(Cc4ccccc4Cl)c3C)no2)c1	·	·	·	-1.3	0.7	-5%&-5%	·	-1	·
COc1ccc(CC(=O)NC(C)c2nnc(SCc3nc4ccccc4c(=O)[nH]3)n2C)cc1 (centres undefined)	·	·	·	0.2	0.69	-9%	·	44	·
CCOC1=C2CN(S(=O)(=O)c3ccc(C)cc3)C(c3ccccc3)CC2N(S(=O)(=O)c2ccccc2Cl)C(c2ccccc2)C1 (centres undefined)	8	18	-0.5	0.0	·	·	i	·	-0.6
Cc1cccc(CC(C)NC(=O)c2cc(COc3ccc(C)c(C)c3)on2)n1 (centres undefined)	-36	-60	-9.1	-0.1	0.69	-11%	i	-16	-2.6
O=C(Nc1c(-c2ccc(Cl)cc2)[nH][nH]c1=O)c1ccc(Br)cc1	-57	-83	-17	0.1	·	·	i	·	-1.4
CN(C)c1ccc(C(=O)OCC(=O)NCCCc2ccccc2)cc1	-18	-14	-1.2	-2.6	0.7	-2%	i	1	1.9
COc1nc(Nc2cccc(C(F)(F)F)c2)nc(OC)n1	·	·	·	-4.2	0.72	0%	·	-3	·
Cc1ccc(NC(=O)C(OC(=O)c2ccc(F)cc2)c2ccccc2)cc1Cl (centres undefined)	-23	-47	18	-0.1	0.69	·	i	-6	-2.7
C=CCn1c(N)cc(=O)nc1SCC(=O)Nc1cccc2ccccc12	·	·	·	1.8	0.7	-3%	·	?	·
CCOC(=O)c1c(S(=O)(=O)N2CCN(c3ccc(F)cc3)CC2)c(C)n(C)c1C	5	7	2.3	-1.0	0.68	·	i	5	-0.7
COc1ccc(S(=O)(=O)N2CCC(C(=O)Nc3ccc(F)cc3)CC2)c2cccnc12	-12	-5	-0.4	-2.4	0.71	2%	i	2	-0.8
CCCCc1cc(O)c(CCCC)c(O)c1	·	·	·	-0.6	0.74	-1%	·	44	·
CCCc1cc(=O)[nH]c(=S)[nH]1	5	10	-0.9	4.6	0.68	·	i	1	-2.4
Cc1ccc(OCc2ccc(C(=O)Nc3nccs3)o2)cc1	·	·	·	-2.4	0.62	1%	·	-25	·
NC(=O)c1cccnc1Oc1ccc(Cl)cc1	·	·	·	-1.6	0.63	·	i	-6	-2.7
Cc1ccc(C)c(COC(=O)c2cc([N+](=O)[O-])ccc2N2CCOCC2)c1	-8	-8	-0.6	-0.5	0.68	0%	i	-2	8.0
COCCNC(=O)CN(C(=O)CCC(=O)Nc1cc(C)on1)c1cccc(C)c1C	·	·	·	1.2	0.71	-1%	·	-5	·
C[C@H](CO)N1C[C@H](C)[C@H](CN(C)S(=O)(=O)c2cccs2)Oc2ccc(NC(=O)CCN3CCOCC3)cc2CC1=O	0	2	0.3	·	·	·	i	·	-7.7
CC(C)OP(=O)(OC(C)C)C(Nc1ccccc1)c1cccc2c1OCO2 (centres undefined)	·	·	·	0.1	0.66	13%	·	-5	·
O=C(CC(O)c1ccccc1)Nc1ccccn1 (centres undefined)	6	18	-2.5	3.1	·	5%	i	·	-3.4
Cc1sc2ncn(CC(=O)N3CCN(c4ccccc4F)CC3)c(=O)c2c1S(=O)(=O)N1CCOCC1	10	5	-0.7	-1.8	0.68	·	·	·	1.0
COc1ccc(/C=C2/SC(=S)N(CCCC(=O)N3CCN(C)CC3)C2=O)cc1	-14	-8	-0.1	2.6	0.67	4%	i	-9	15
Cc1ccc(-n2[nH]c(C)c(/C=N/NC(=O)c3ccc([N+](=O)[O-])cc3)c2=O)c(C)c1	7	3	-2.4	-1.2	·	·	i	4	3.9
CN(c1cccc(NC(=O)CN(c2cccc(Cl)c2)S(=O)(=O)c2ccccc2)c1)S(C)(=O)=O	·	·	·	0.0	0.73	5%	·	-9	·
Cc1noc(C)c1NC(=O)NCC[C@H]1CC[C@@H](NC(=O)Nc2cccc(Cl)c2)[C@H](CO)O1	-2	9	-0.1	·	·	·	i	·	4.4
CCN1[C@@H]2Cn3c(ccc(C4=CCCCC4)c3=O)[C@H]1[C@@H](C(=O)NCc1ccccn1)[C@@H]2CO	-2	-2	-1.7	·	·	·	i	·	1.6
O=C(O)C1CC=CCC1C(=O)N1CC=C(c2ccccc2)CC1 (centres undefined)	17	10	-0.4	-6.0	0.67	31%	i	1	-2.6

The list is partial; the hit share may differ from the screen's.
